Assay outcomes: PubChem BioAssay, National Center for Advancing Translational Sciences (NCATS)
Sfp inh: qHTS Assay for Inhibitors of Bacillus subtilis Sfp phosphopantetheinyl transferase (PPTase); hit rate 3.5% among 310,000; Biochemical Sfp PPTase activity, qHTS; Potency, µM, inactives show max response, negative = inhibition, actives largely listed as inhibitors; 4'-phosphopantetheinyl transferase ffp (Bacillus subtilis), Q9F4F7; active means well fitted inhibition curve with a large enough effect; inconclusive means small, poorly fitted or top-dose-only effect, or another doubt; inactive means no such curve, though single readings can be large or run the other way;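 further: the enzyme is Sfp with the accession as filed and its product quenches rhodamine fluorescence; potency means the concentration at half of the fitted maximal effect; 0% = enzyme reaction without inhibitor and -100% = no enzyme wells; top concentration of the series not given in the record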
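Compounds were incubated with enzyme (final 15 nM) for 15 min at room temperature before substrate addition started the reaction. Fluorescence at 525 nm excitation, 598 nm emission was recorded immediately and after 30 minutes.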
PINK1 expr mod: A Quantitative High throughput Screen to Identify Chemical Modulators of PINK1 Expression. PINK1 immunofluorescence, high-content cytometry, 24 h. Potency, µM (titrated, usually from 76.6 µM), inactives show top-dose activation (PINK1 increase), most hits filed as activators. hit rate 0.2% among 410,000; active = well fitted activation curve with a large enough effect; inconclusive = small, poorly fitted or top-dose-only effect; inactive = flat fitted curve, though single readings scatter; cell line not stated here;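 further: potency means the concentration at half of the fitted maximal effect; % of control where 0% means no effect; nearly all actives have a fitted effect of over 65% in size; a mitochondrial uncoupler was the plate control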
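A stable cell line was treated with compounds at 5 concentrations for 24 hours, with CCCP as control. PINK1 levels and mitochondrial localization were measured by immunofluorescence with mitochondrial, cell and nuclear markers after fixation, read by laser-scanning cytometry.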
TRPV1 potentiator: HTS Assay for Compounds that Act as Potentiators of the Vanilloid Receptor 1. Transient receptor potential cation channel subfamily V member 1 (Homo sapiens), Q8NER1. TRPV1-expressing cells, Fluo-8 calcium influx, capsaicin EC20 potentiation; host cell line not named in the record; control for the full effect not named in the record. potentiation, % at 8.33 µM. hit rate 0.02% among 320,000; active means potentiation above 80%; inconclusive means 30% to 80%; inactive means below 30%; further: 0% is about no effect
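TRPV1-expressing cells were cultured overnight at 35.5C and loaded with Fluo-8 calcium dye for 40 to 90 min at room temperature. After a 10 s baseline, compound was added and calcium influx was read kinetically for 3 min (ex 480/em 520 nm).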
TRPML1 inh: qHTS for Inhibitors of the Human Mucolipin Transient Receptor Potential 1 (TRPML1) | activity change, negative = inhibition, % (test concentration not listed) | TRPML1-inducible cells, Ca2+ dye fluorescence, FDSS; hits give low values; inhibition of EC80 agonist-evoked calcium signal | hit rate 0.02% among 390,000 | AID 624415, 2012 | Mucolipin-1 (Homo sapiens), Q9GZU1; in the data active means activity change below about -50%; inconclusive means about -30% to -50%; inactive means above about -30%;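 further: stimulus is agonist 54-4 at its EC80 concentration; on the % scale 0 is the no-effect control and ±100 the full control effect; compound concentration not given in the record; the text of the record puts the active cut at -80%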
Target sequence (Q9GZU1 whole entry, looked up): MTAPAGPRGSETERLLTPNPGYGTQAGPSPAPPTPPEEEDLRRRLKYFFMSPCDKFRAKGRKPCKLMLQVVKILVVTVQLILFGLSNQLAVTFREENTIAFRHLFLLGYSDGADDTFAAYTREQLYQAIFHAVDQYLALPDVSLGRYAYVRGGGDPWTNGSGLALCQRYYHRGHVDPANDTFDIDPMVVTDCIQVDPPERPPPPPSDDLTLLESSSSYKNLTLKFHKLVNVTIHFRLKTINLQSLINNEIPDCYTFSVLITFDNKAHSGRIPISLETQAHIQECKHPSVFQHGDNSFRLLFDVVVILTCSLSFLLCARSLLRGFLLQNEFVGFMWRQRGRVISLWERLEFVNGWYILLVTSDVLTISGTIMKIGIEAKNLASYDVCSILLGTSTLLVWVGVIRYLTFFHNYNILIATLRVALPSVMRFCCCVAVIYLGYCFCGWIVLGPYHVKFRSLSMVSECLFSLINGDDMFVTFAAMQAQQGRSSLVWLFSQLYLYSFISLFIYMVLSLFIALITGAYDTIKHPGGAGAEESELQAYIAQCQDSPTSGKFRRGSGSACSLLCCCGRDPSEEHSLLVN
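Tet-induced TRPML1-DL cells loaded with Ca8 no-wash calcium dye were read kinetically on FDSS. Compound addition was followed by EC80 agonist 54-4 (4 uM final); inhibition was read over 110 s.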
Menin MLL FP FL: qHTS Assay for Inhibitors Targeting the Menin-MLL Interaction in MLL Related Leukemias: Competition With Fluorescein Labeled MLL-derived Peptide; Fluorescence polarization, fluorescein-MLL peptide displacement from menin; FP activity change, % at 61.4 µM; 290,000 tested, under 10 active; AID 1766, 2009; inconclusive = falling polarisation curve, or a change in total fluorescence; inactive = total fluorescence flat and polarisation flat or rising; no compound was filed as active; the % refers to the polarisation; negative = inhibition;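 further: % of control where 0% means no effect; inhibitors lower the polarisation; unlabelled MLL peptide was the positive control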
ClpP mod: qHTS Assay for Activators of ClpP | AID 651965, 2013 | Potency, µM (series often up to 57.5 µM), for the others: at the highest dose activity change, negative = active | ATP-dependent Clp protease proteolytic subunit (Bacillus subtilis (strain 168)), P80244 | purified B. subtilis ClpP, FRET peptide cleavage, 20 min | hit rate 1.9% among 340,000; active = well fitted falling curve with a large enough effect; inconclusive = small, poorly fitted or top-dose-only effect; inactive = no such curve, though single readings can be large or run the other way; further: potency means the concentration at half of the fitted maximal effect; the source files actives as falling curves though it sought activators and does not explain the sign; nearly all actives have a fitted effect of over 65% in size; many hits overshoot -100%
Target sequence (P80244 whole entry, looked up): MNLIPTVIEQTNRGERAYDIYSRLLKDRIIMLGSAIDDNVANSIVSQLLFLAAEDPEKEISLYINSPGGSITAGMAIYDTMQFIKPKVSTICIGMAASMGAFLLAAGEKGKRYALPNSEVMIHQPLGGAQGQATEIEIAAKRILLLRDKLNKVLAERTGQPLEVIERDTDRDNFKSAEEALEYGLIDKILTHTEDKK
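ClpP 10 microg/mL final, pH 8 Tris/KCl buffer with BSA, glycerol, Tween-20; compound pinned in; FRET-FV substrate; RT 20 min; Ex320/Em430; ΔFRET vs ADEP 5.8 microM, DMSO, no enzyme.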
TRPML1 agonist: qHTS for Agonists of the Human Mucolipin Transient Receptor Potential 1 (TRPML1) | hit rate 0.12% among 410,000 | Mucolipin-1 (Homo sapiens), Q9GZU1 | activation, % (concentration not given with the values) | AID 624414, 2012 | TRPML1-expressing cells, Ca2+ dye fluorescence, FDSS; host cell line not named in the record; reference of the full effect not given here; in the data active = activation above about 50%; inconclusive = about 30% to 50%; inactive = below about 30%; further: 0% is about no effect; the text of the record puts the active cut at 80%
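Cells: TRPML1-DL, 1X Tet inducer, ~16 h at 37 degrees C/5% CO2. Dye: ABD Ca8 no-wash + quencher, 45-90 min RT. Read: 10 s baseline, compound add, 110 s agonist phase; 54-4 EC80 (4uM final), 110 s antagonist phase.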
The depositor's hits bear a star; ? = inconclusive; / = not tested or not shown; & = joins results of further samples; [ ] = remark or other dose.

canonical_smiles	Sfp inh	PINK1 expr mod	TRPV1 potentiator	TRPML1 inh	Menin MLL FP FL	ClpP mod	TRPML1 agonist
CC(CC(=O)O)n1nnc2ccccc21 (stereo not given)	3%	-0.1%	-3	-2	-2.0	/	-0.3
CS(=O)(=O)Nc1ccc(S(=O)(=O)Nc2nccs2)cc1	15%	0.1%	-5	4	0.2	-0.8%	0.2
CCOc1ccc(NC(=O)c2cccc(NC3=NC4CS(=O)(=O)CC4S3)c2)cc1 (stereo not given)	17%	1.5%	1	9	-6.8	-1.3%	-0.2
OCc1nc2ccccc2n1Cc1c(F)cccc1Cl	6%	0.2%&-2.3%	12	20	0.8	0.9%&0.1%	2.7
CCOc1ccc(CCNC(=O)COC(=O)Cc2ccc(F)cc2)cc1OCC	/	-2.7%	0	17	/	/	3.1
COc1ccc(/C=C2\N=C(C)N(c3ccc4ccccc4c3)C2=O)cc1OC	0%	12%	-4	-8	/	-1.5%	-0.1
COc1ccc(CCNC(=O)NCc2noc3ccccc23)c(OC)c1	/	-0.3%	/	11	/	-1.6%	2.4
Cc1cc(OCCCCN2C(=O)NC(C)(C)C2=O)ccc1[N+](=O)[O-]	-1%	1.9%	-21	5	-1.2	/	-0.2
COc1ccc(N(C(=O)Cn2nnc3ccccc32)C(C(=O)NC(C)(C)C)c2ccc(OC)c(O)c2)cc1 (stereo not given)	5%	-1.5%	5	-1	2.2	-8.2%	-0.4
CCOC(=O)CC(=O)NC(CC(=O)OC)c1ccc(Br)cc1 (stereo not given)	0%	0.7%	30	7	3.4	0.1%	-0.6
O=C(c1ccccc1F)N1CCN(c2ccc([N+](=O)[O-])c(N3CCOCC3)c2)CC1	-5%	-1.6%	-9	-21	10	/	1.2
CC(=O)c1cccc(NC(=O)COC(=O)CC2CC3CCC2C3)c1 (stereo not given)	/	0.0%	-6	-8	/	1.0%	0.2
Cc1cc(C)nc(-n2nc(C)cc2NC(=O)CNCc2ccccc2)n1	0%	4.2%	6	-6	4.9	-2.9%	0.6
Cn1c(NCCc2ccncc2)nc2cc(-c3cccc(C(F)(F)F)c3)sc2c1=O	/	2.7%	/	1	/	-11%	0.3
CCC(C(=O)N1CCN(c2ccccc2)CC1)n1c(C)c2cnn(-c3ccccc3)c(=O)c2c1C (stereo not given)	/	0.9%	/	3	/	-10%	-0.3
CCOC(=O)CN(C(=O)COc1nc(-c2ccccc2)cc(C)c1C#N)c1cccc(OC)c1	16%	0.8%	-13	26	3.1	4.0%	1.0
COc1ccc2nc3oc(C(=O)NC4CCN(Cc5ccccc5)CC4)cc3cc2c1	10%	-1.7%	2	-7	0.9	?	-0.9
CCCC(=O)c1ccc(N2CCN(S(=O)(=O)c3ccc(C)cc3)CC2)c(F)c1	-2%	/	-24	-3	4.3	-2.3%	1.4
Cc1ccccc1CN1C[C@@H]2C[C@@H](c3cnc(N4CCOCC4)s3)N3CCC[C@@]23C1=O	50µM*	3.6%	1	15	?	0.0%	0.3
Oc1ccccc1OCCOc1ccccc1OCCOc1ccccc1O	15%	3.1%	7	-16	-4.1	/	2.2
O=C(CN1C(=O)c2cccnc2Oc2ccc(Cl)cc21)Nc1ccc(F)cc1	2%	-1.0%	12	25	16	-16%	0.7
Cc1cc(/C=C(\C#N)C(=O)Nc2ccc(Cl)cc2)c(C)n1-c1ccc(N2CCOCC2)c([N+](=O)[O-])c1	-1%	4.5%	-2	40	1.5	-1.6%	0.2
CCOCCCNC(=O)CCS(=O)(=O)Cc1ccc(C)cc1	17%	0.2%[38.3 µM]	-1	2	4.8	-0.3%	-0.6
O=C(O)c1ccc(Nc2ncnc3scc(-c4ccccc4)c23)cc1	-1%	-0.8%&-0.2%	-1	-3&-7	-0.5	0.2%	-0.2&0.5
Cc1cc(C)cc(OCC(=O)OCC(=O)c2cc(C)n(C3CC3)c2C)c1	-14%	8.2%	26	7	-2.9	-2.0%	2.7
Cc1ccc(-n2cc(S(=O)(=O)c3ccc(C)cc3)[nH]c2=O)cc1	-2%	-1.8%	-4	27	-1.7	/	-1.0
Cc1cccc(CCn2c(=O)c3ccccc3n(Cc3ccccc3C)c2=O)c1	/	5.6%	/	-8	/	-1.7%	-0.4
CCN(CC)C(=O)CSc1nc(Cc2ccccc2)nc2ccccc12	26%	-1.2%	15	6	-4.7	0.2%	1.0
COc1cc(-c2cc(NC(C)=O)c3ncc(-c4cc(OC)c(OC)c(OC)c4)n3c2)cc(OC)c1OC	/	1.4%	/	10	/	16%	0.3
CCOc1ccccc1NC(=O)Cn1nc(-c2ccco2)ccc1=O	-6%	1.8%	1	26	2.0	/	-0.3
CCC1(C)N([O-])C(C)=C(c2ccccc2)[N+]1=O (stereo not given)	12%	-0.1%	-2	21	-6.4	3.0%	-0.4
CC1CN(C(=S)Nc2ccc(S(N)(=O)=O)cc2)CC(C)O1 (stereo not given)	4%	1.9%	-5	-13	-1.1	-1.6%	-0.4
CCN(CC)CCn1c(SCC(=O)NCCC2=CCCCC2)nc2c(sc3ccccc32)c1=O	3%	2.4%	-11	5	0.4	/	0.2
Cc1c(C)c2c(OCC(=O)O)cc3c(c2oc1=O)CCC(C)(C)O3	15%	1.0%	5	-13	2.2	4.0%	0.7
CC(=O)/C(=N\Nc1ccc(C)cc1)N1CCOCC1	-6%	7.2%	-19	13	-0.8	-1.1%	-0.3
COc1ccc(CNC(=O)C2CCN(S(=O)(=O)c3ccc4nc5c(c(C(=O)O)c4c3)CCCC5)CC2)cc1	/	-1.3%&0.2%	/	-4&16	/	-2.1%&-1.1%	0.4&-0.1
COc1ccc2nc3ccccc3nc2c1NC(=O)c1ccccc1Cl	5%	4.7%	-16	-4	?	/	1.1
Cc1cc(C(=O)COC(=O)c2ccncc2)c(C)n1Cc1ccco1	-11%	-2.2%	-20	-19	2.0	-3.3%	-0.4
Cc1ccc(C)c(COC(=O)c2cccc(S(=O)(=O)N3CCCC3)c2)c1	/	8.8%	-8	86	/	-4.5%	1.6
CN1CCCC(C)(C(=O)Nc2ccc(-n3cccc3)cc2)C1 (stereo not given)	/	0.8%	/	/	/	-0.3%	-0.1

Taken from the entries so far (two entries):
canonical_smiles	Sfp inh	PINK1 expr mod	TRPV1 potentiator	TRPML1 inh	Menin MLL FP FL	ClpP mod	TRPML1 agonist
Cc1ccc(C)c(COC(=O)c2cccc(S(=O)(=O)N3CCCC3)c2)c1	/	8.8%	-8	86	/	-4.5%	1.6
CN1CCCC(C)(C(=O)Nc2ccc(-n3cccc3)cc2)C1 (stereo not given)	/	0.8%	/	/	/	-0.3%	-0.1

Additional results.
canonical_smiles	Sfp inh	PINK1 expr mod	TRPV1 potentiator	TRPML1 inh	Menin MLL FP FL	ClpP mod	TRPML1 agonist
O=C(c1ccc([N+](=O)[O-])cc1)N1CCN(C(=O)c2ccco2)CC1	14%	-1.1%	-3	-17	-0.7	/	0.8
COc1ccc(C(=O)Nc2nc(CC(=O)NCc3c(F)cccc3F)cs2)cc1	/	0.1%	/	2	/	-11%	0.6
COc1cccc(NC(=O)Cn2cc(C(=O)c3ccc(C)cc3)c(=O)c3cc(OC)ccc32)c1	/	-0.2%	20	14	/	-6.5%	1.6
COc1ccc(NC(=O)CN(Cc2ccccc2)S(=O)(=O)c2ccc(C)cc2)cc1Cl	/	0.0%	/	21	/	-5.0%	1.0
CCC(C)(C)C1CCc2[nH]nc(C(=O)NN)c2C1 (stereo not given)	0%	3.4%	-6	12	-0.7	-10.0%	-0.1
Cc1cc(C)c2c(-n3cccc3)nn(CC#N)c2n1	0%	0.6%	3	0	2.5	-1.1%	0.0
COc1ccc(COc2ccccc2C(N)=O)cc1F	8%	2.6%	17	8	2.3	/	-1.0
CN(C(=O)CN1C(=O)/C(=C/c2ccc(F)cc2)SC1=S)C1CCS(=O)(=O)C1 (stereo not given)	8%	-1.7%	6	-13	-0.1	-5.2%	1.0
COCCNC(=O)c1ccccc1NC(=O)c1nsc2ccccc12	/	0.5%	/	-18	/	-17%	0.6
CCCCCOc1ccc(Br)cc1/C(C)=N/NC1=NCCN1	?	1.1%	8	-4	4.3	1.3%	-1.3
O=C(Nc1ccc(N2CCOCC2)cc1)c1ccc(COc2ccccc2)cc1	2%	7.8%	3	-14	0.8	/	0.0
Cc1ccc(SCC(=O)NCCSCc2ccccc2)cc1	0%	0.5%	-5	-25	/	1.1%	3.8
CC1(C)Cc2ccccc2C(N)=C1C#N	5%	0.0%[38.3 µM]	3	-5	2.5	-1.7%	-0.1
O=C(O)c1ccc(Br)c(S(=O)(=O)N2CCCC2)c1	15%	-0.3%[38.3 µM]	-8	-6	2.4	-1.6%	0.3
CCOc1cc(C2C(C(=O)N3CCCCC3)=C(C)NC3=C2C(=O)CC(C)(C)C3)ccc1O (stereo not given)	15%	3.5%	-6	16	2.4	-26%	0.9
COc1cccc(CN2CCN(C(=O)CC(C)C)CC2)c1	-14%	-1.5%	-1	5	-1.7	1.2%	-0.5
Cc1ccc(S(=O)(=O)N2CCCC2CNC(=O)c2ccccc2)cc1 (stereo not given)	/	4.4%	-8	-13	/	1.1%	1.5
CN(C1(C)CCS(=O)(=O)C1)S(=O)(=O)c1ccc(F)cc1 (stereo not given)	4%	-1.2%	1	26	-0.9	-1.4%	0.0
CCc1ccc(NC(=O)CC2C(=O)N(c3ccc(OC)cc3)C(=O)N2CCOC)cc1 (stereo not given)	6%	1.2%	-11	-8	-6.4	2.2%	-0.2
COc1cccc(N(CC(=O)NC2CCCC2)C(=O)Cn2nnc(-c3ccc(C)o3)n2)c1	11%	1.3%	15	-5	6.3	/	2.1

Outcome played no part in choosing rows; 4.4% or so of the library scored in one or more.
